# Screens as filed in PubChem.
# A1 inh: inhibitors of the anti-apoptotic protein A1, read as caspase activation | 330,000 tested, 0.066% active | caspase activation, % (concentration not given with the values) | MEF A1-2A-BIM cells, Caspase-Glo 3/7 luminescence, 3 h; percent of clofoctol response, vehicle zero | AID 2462;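 active = over half of replicate activation scores above 10%, or exactly half above 10 with the replicate mean above 10; inconclusive = replicate mean below 10 yet half the replicates above 10; inactive = over half of replicates below 10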;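 also: wells of about 30 µL received 50 nL stock; many hits fall short of the cut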
# Vif TR-FRET: inhibitors of Vif binding to APOBEC3G peptide, primary screen, biochemical, TR-FRET, GST-Vif 1-94, biotin-A3G peptide, dose response retest (AID 1117319) | inhibition, %, or IC50 in µM where a hit was titrated | 260,000 tested, 0.57% active | TR-FRET GST-Vif / biotin-A3G peptide binding; higher % means a stronger effect; test concentration not given here; strong numbers were not always called active;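 active = above the screen mean plus three standard deviations and confirmed in dose response; inconclusive = results disagree or hit not tested in dose response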;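 also: Vif residues 1-94 fused to GST binding biotinylated APOBEC3G peptide 110-148; 0% = full assay without inhibitor and 100% = GST in place of GST-Vif; retest series ran down from 100 µM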
# T cruzi inh: blocks replication of Trypanosoma cruzi. inhibition, % (concentration not given with the values). T. cruzi beta-gal in NIH3T3, luminescence, 90 h. 300,000 tested, 1.4% active;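 active = mean inhibition across valid replicates above about 55%, limit read from the data; inconclusive = mean below that limit but half or more replicates reach it; inactive = mean below it, under half of replicates reach it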;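 also: signal also drops with host cell toxicity which is not excluded here; 0% = plate median of DMSO wells and 100% = zero luminescence signal; higher percent means less beta-gal luminescence so fewer parasites; stock transfer was 50 nL into about 50 µL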
# RanGTP-Impb inh: disruptors of Ran-importin-beta complex formation – biochemical, FRET, CFP-Ran, YFP-importin-beta, homogeneous, primary screen; cell-free CFP-Ran/YFP-importin-beta FRET ratio; inhibition, % (no concentration beside the values); 300,000 tested, 1.1% active; AID 2216;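 active = most replicates above 15%; inconclusive = exactly half above 15%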;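 also: 0% = DMSO wells and 100% = Ran loaded with GDP instead of GTP; wells of about 40 µL received 100 nL stock; the first replicate is given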
# Beta apoptosis: blocks beta cell apoptosis; INS-1E cytokine-induced death, ATP luminescence, 48 h; percent of positive-control rescue, neutral wells zero; protection from apoptosis, % (no concentration beside the values); 300,000 tested, 0.8% active; AID 435005;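 active = all replicates at 75% or more, or half of them and the mean; inconclusive = half reach 75% but not the mean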;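 also: 0% = cytokine-treated negative control wells and 100% = positive control rescue; higher means more ATP so stronger rescue from cytokine killing; wells of about 40 µL received 100 nL stock; the first replicate is given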
# Calb FLC: affects C. albicans growth with fluconazole; AID 1979; 300,000 tested, 0.57% active; C. albicans CaCi-2 (fluconazole-resistant clinical isolate) + fluconazole, Alamar Blue growth, 48 h; growth inhibition, % (no concentration beside the values);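 active = most replicates above 75%; inconclusive = exactly half above 75%; inactive = most below 75%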;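 also: all wells also contain fluconazole at 8 µg/ml as a sub-toxic cotreatment; 0% = median of DMSO wells and 100% = median of geldanamycin control wells; wells of about 8 µL received 7.5 nL stock; the first replicate is given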
# rRNA inh HTS: inhibits bacterial ribosomal RNA function over humanized ribosomes; E. coli WT GFP vs humanized-ribosome RFP mutants, fluorescence, 24 h; hits give low values; DMSO median 0, no signal -100; GFP signal change (wild-type ribosome), % (no concentration beside the values); 350,000 tested, 1.6% active;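 active = significant combined selectivity score with lowered wild-type GFP, culture density cut under 30%, mutant RFP and density less affected; inactive = any of these conditions unmet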; also: one replicate is shown; some compounds called inactive have numbers as strong as hits
# AF4-AF9 inh: MLL-AF4/AF9 protein interaction inhibition; P42568; AlphaScreen, biotin-AF4 peptide binding to FLAG-AF9; inhibition, % at 10 µM; 350,000 tested, 0.47% active;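 active = every replicate reaching a set inhibition limit, whatever the replicate mean, cut at about 25% in these data; inconclusive = mean inhibition reaches that limit but some replicates miss it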;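 also: 0% = plate neutral control median and 100% = total signal loss; the record names both 10 and 1 µM as test concentration; the first replicate is given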
# Target sequence (P42568 whole entry, looked up): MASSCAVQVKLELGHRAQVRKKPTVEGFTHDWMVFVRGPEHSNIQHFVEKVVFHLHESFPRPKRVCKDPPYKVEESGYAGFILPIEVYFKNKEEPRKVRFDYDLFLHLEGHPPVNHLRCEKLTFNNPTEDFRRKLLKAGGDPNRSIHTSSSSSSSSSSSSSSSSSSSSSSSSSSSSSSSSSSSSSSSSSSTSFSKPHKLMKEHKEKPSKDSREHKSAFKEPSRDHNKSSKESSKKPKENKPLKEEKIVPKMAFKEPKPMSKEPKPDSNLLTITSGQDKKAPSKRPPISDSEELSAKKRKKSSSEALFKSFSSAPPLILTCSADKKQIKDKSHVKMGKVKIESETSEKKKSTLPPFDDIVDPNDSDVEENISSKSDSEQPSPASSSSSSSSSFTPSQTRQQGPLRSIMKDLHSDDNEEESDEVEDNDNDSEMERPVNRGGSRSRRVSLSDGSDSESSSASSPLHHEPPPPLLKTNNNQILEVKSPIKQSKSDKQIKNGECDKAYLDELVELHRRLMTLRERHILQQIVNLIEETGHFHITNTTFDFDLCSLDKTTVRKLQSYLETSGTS
# rRNA inh HTS OD600: second read-out of rRNA inh HTS, no call of its own (marks repeat the call); OD600 change, %; measured here: OD600 growth;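 optical density of the mix in the first replicate; 0 = DMSO median and -100 = no signal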
# rRNA inh HTS RFP: second read-out of rRNA inh HTS, no call of its own (marks repeat the call); RFP signal change, %; measured here: RFP humanized mutant strains;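 first replicate; 0 = DMSO median and -100 = no signal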
# An asterisk follows results filed as active; ? = inconclusive; · = no result given; & = joins results of further samples. This is a subset; rates above refer to the full screens.
Structure	A1 inh	Vif TR-FRET	T cruzi inh	RanGTP-Impb inh	Beta apoptosis	Calb FLC	rRNA inh HTS	rRNA inh HTS OD600	rRNA inh HTS RFP	AF4-AF9 inh
CC(=O)c1ccc2c(c1)OCCOCCOc1ccc(C(C)=O)cc1OCCOCCO2	-0.5	-4.4%	15.5	-2.3	-12.2	-8.1	·	·	·	1.7
CN(c1ccccc1)c1ccc(/C=C(\CCC(=O)O)c2nc3ccccc3s2)cc1[N+](=O)[O-]	0.3	21.8%	-13.9	2.5	3.9	47.1	-17.5	-14.2	8.2	-0.3
CSc1ccc(S(=O)(=O)NCc2ccc(Cl)cc2)cc1	-0.1	1.6%	-18.1	0.2	-3.0	-4.6	·	·	·	·
COc1ccc(C(=O)[C@H]2[C@H]3C(=O)N(c4ccc(C)cc4)C(=O)[C@H]3C3C=CC=NN32)cc1 (stereo partly specified)	0.6	·	-14.7	-5.3	-8.3	3.4	11.7	5.6	1.3	-0.3
Cc1ccc(OC(C)C(=O)N(Cc2cccs2)C2CCS(=O)(=O)C2)cc1C (stereo unspecified)	-0.5	-0.9%	0.8	2.0	-3.4	26.4	-9.8	-1.0	1.3	-1.0
COc1ccc(C(=O)Nc2ccc(NC(=O)c3cccc(F)c3)cn2)cc1	-1.0	1.3%	5.6	-1.9	-3.5	-3.3	1.2	13.6	-4.0	-8.2
O=C(CSc1nc2ccccc2o1)N1c2ccccc2Sc2ccc(C(F)(F)F)cc21	-0.2	-3.6%	50.1	-0.3	2.8	-1.7	·	·	·	·
NNc1nc2ccccc2nc1C(F)(F)F	0.1	10.3%	-15.5	-5.1	·	-6.5	11.1	6.8	-4.1	-7.0
O=C1NCC(=O)N(Cc2ccccc2)/C1=C/c1ccccc1	-0.1	-2.1%	-13.3	1.4	-8.4	0.9	6.4	2.6	3.5	2.1
NC(=O)c1ccc(NC(=O)CCCN2C(=O)c3ccccc3C2=O)cc1	0.9	-0.5%	-3.3	0.4	-2.5	-9.9	·	·	·	·
CN1CCN(c2ncnc3sc(-c4ccccc4)cc23)CC1	0.8	-3.8%	73.9*	5.3	3.0	-7.0	-3.0	8.3	-1.4	-1.4
O=C(Cc1ccc(Cl)c(Cl)c1)OCC(=O)c1ccc[nH]1	0.4	4.0%	-6.5	1.1	-9.4	3.3	·	·	·	·
Cc1ccc(CCNC(=O)CN(C)S(=O)(=O)c2ccc3c(c2)n(C)c(=O)c(=O)n3C)cc1	1.3	·	-6.6	3.5	-1.4	-3.3	9.0	2.5	12.1	6.7
CN(C)C(=O)C1CCC(=O)N1Cc1cccs1 (stereo unspecified)	1.2	·	·	-6.4	-4.9	?	19.5	20.1	2.1	5.7
O=C(Nc1cccc(S(=O)(=O)N2CCCCC2)c1)c1ccccn1	-0.5	-0.4%	-4.0	-6.8	-5.2	15.1	5.6	10.5	-3.9	-0.8
CCN(CC)C(=O)Oc1cc(=O)n2c3c(cccc13)CCC2	0.6	-11.9%	0.4	3.3	-2.7	3.7	·	·	·	·
NC(=O)COC(=O)C1c2ccccc2Oc2ccccc21	-0.3	-5.5%	-1.3	-0.3	2.6	-6.8	0.2	-3.1	-0.5	2.7
Cc1cc(C)cc(OCc2nc3ncc(Br)cc3[nH]2)c1	0.4	·	-2.9	-3.3	48.4	-19.7	·	·	·	·
CC1(C)CC(=O)C2=C(C1)N=C1c3ccccc3C(=O)C1C2c1ccc(Cl)cc1 (stereo unspecified)	-0.4	6.4%	52.8	?	1.4	65.2	·	·	·	·
Cc1ccc(/C(N)=N/OC(=O)CSc2ccccc2)cc1	?	21.5%	3.8	-2.2	-5.7	-16.2	5.8	4.8	-0.7	-3.3
CCN(CC)C(=O)COc1ccc(CC(=O)O)cc1OC	0.1	-0.3%	-2.9	2.6	-0.6	-3.9	·	·	·	·
COc1ccc(S(=O)(=O)N2CCCOC2CNC(=O)C(=O)NCc2cccnc2)cc1 (stereo unspecified)	0.5	1.1%	-10.3	-4.7	-1.7	1.3	0.0	2.2	4.6	-12.1
CCOC(=O)c1cc2occc2n1CC(=O)N1CCOCC1	-0.4	3.1%	?	-0.8	-3.6	-14.5	·	·	·	·
COc1cc(C(=O)Nc2cccc(S(=O)(=O)N3CCCC3)c2)cc(OC)c1C	0.4	2.6%	13.4	1.3	-0.4	-1.8	-21.8	-12.5	10.9	5.4
CCc1ccc(CNC(=O)C2CCC(=O)N2C2CCCCC2)cc1 (stereo unspecified)	0.0	1.6%	-8.0	?	-3.9	-1.8	·	·	·	·

# The listing continues:
Structure	A1 inh	Vif TR-FRET	T cruzi inh	RanGTP-Impb inh	Beta apoptosis	Calb FLC	rRNA inh HTS	rRNA inh HTS OD600	rRNA inh HTS RFP	AF4-AF9 inh
COCC(C)NC(=O)C(C)N1c2cccc3cccc(c23)S1(=O)=O (stereo unspecified)	0.7	·	-6.4	3.0	-6.5	-5.5	12.3	6.5	2.4	3.1
CCc1ccc(NC(=O)CSc2nc(=O)n(CCCN(C)C)c3c2CCC3)cc1	0.1	3.4%	34.6	-1.8	-2.5	-4.5	2.2	3.1	-0.5	7.0
CCOc1cccc(C2C(C(=O)c3ccc(C)o3)=C(O)C(=O)N2Cc2ccncc2)c1 (stereo unspecified)	4.2	2.8%	-4.3	5.8	-5.9	30.1	·	·	·	·
COc1ccccc1Oc1coc2cc(OC(=O)N3CCOCC3)ccc2c1=O	0.2	0.3%	0.6	2.1	-0.2	22.7	·	·	·	·
CN1CCCN(S(=O)(=O)c2ccc3c(c2)OCCO3)CC1	0.7	4.1%	-10.0	1.5	3.0	-11.7	·	·	·	·
COc1ccc(/C=N/NC(=O)Cc2csc(Nc3cccc(C(F)(F)F)c3)n2)cc1C	0.7	-5.2%	22.4	-1.8	-6.6	-3.6	·	·	·	·
CC(=O)Nc1ccc(S[C@@H](CCN2CC[C@H](O)CCC2=O)c2ccccc2)cc1	0.7	·	·	·	-2.2	·	-4.8	-3.2	-4.5	1.0
O=C(NC1(C(F)(F)F)N=C2SCCN2C1=O)c1ccccc1 (stereo unspecified)	-1.1	-1.8%	-14.9	5.3	-4.7	8.6	·	·	·	·
C=CCOC(=O)C1=C[C@@H](c2csc3ccccc23)C[C@@H](OCc2ccc(CO)cc2)O1	0.0	-6.3%	28.7	-3.8	-11.3	5.3	-0.4	-10.3	-0.9	0.6&-1.5
Cc1cccc(C)c1OCC(O)CN(Cc1ccccc1O)C1CCCCC1 (stereo unspecified)	0.3	7.6%	26.9	-0.3	28.3	0.8	-19.0	-27.7	3.5	0.9
CCc1cccc2c(C(=O)COC(=O)[C@@H]3CC(O)CN3S(=O)(=O)c3ccccc3[N+](=O)[O-])c[nH]c12 (stereo partly specified)	0.1	-3.4%	·	·	-4.7	·	-29.1	-29.6	1.4	6.3
CCOc1ccc(CNC(=O)C2CCN(c3nn4c(=O)cc(C)nc4s3)CC2)cc1	1.9	·	-24.5	0.9	-0.7	6.7	2.8	-0.4	-0.1	1.4
C/C(=N/NC(=O)CNC(=O)C1COc2ccccc2O1)c1ccc([N+](=O)[O-])cc1 (stereo unspecified)	-0.6	·	21.0	3.8	-2.0	33.2	-8.0	3.1	-1.3	-3.2
CC(C)CCOc1ccc(C(CC(N)=O)C(=O)O)cc1 (stereo unspecified)	-0.3	-1.8%	-2.6	2.7	5.4	14.0	·	·	·	·
CCOCCc1c(O)nc(SCC)[nH]c1=O	-0.3	2.9%	4.9	6.3	-10.7	6.9	1.8	5.8	0.4	-13.5
CC(C)C(CCNC(=O)CC(Cc1ccccc1)c1ccco1)c1ccco1 (stereo unspecified)	0.4	12.9%	7.8	6.6	-5.4	-5.5	·	·	·	·
COc1ccc(NC(=O)CNC(=O)N2CC(=O)Nc3ccccc32)cc1OC	0.4	·	-14.7	0.8	-5.3	-10.9	3.0	7.5	0.9	1.6
COc1ccc(Cc2nnc(NC(=O)Nc3ccccc3F)s2)cc1	1.8	·	-5.5	1.9	-2.2	-1.8	10.2	9.6	-0.8	0.6
O=C(CCN1CCN(c2ccccc2)CC1)NNC(=S)Nc1ccccc1Cl	1.1	-1.6%	-4.3	3.0	4.8	4.4	-1.3	-4.7	2.5	-3.2
CC1(NC(=S)N(CCO)CCO)CCS(=O)(=O)C1 (stereo unspecified)	0.4	·	-10.5	-1.3	-11.5	-3.5	·	·	·	·
COc1ccc(C=NCC2OCCc3ccccc32)cc1OC (stereo unspecified)	0.8	10.4%	13.7	0.1	-1.9	-27.1	4.8	14.9	3.3	4.6
COc1cccc(NC(=O)N2CCCC2C(=O)NC2CCCC2)c1 (stereo unspecified)	-1.4	1.6%	-9.2	-0.4	-2.1	-3.8	13.4	6.8	1.4	0.8
O=C(/C=C/c1ccc(F)cc1)NCC1(c2ccccc2)CCOCC1	0.1	·	4.7	-1.1	-0.5	53.0	-8.3	-16.6	-4.3	1.4
COc1cccc(Oc2cnc(N)nc2-c2ccc(OC)cc2O)c1	-0.6	-1.7%	-2.2	1.9	3.1	10.6	·	·	·	·
CCOc1ccc2[nH]c3c(NCCc4ccc(OC)c(OC)c4)ncnc3c2c1	-0.1	·	15.5	3.5	·	8.9	-8.4	2.4	0.8	11.7

# Further entries:
Structure	A1 inh	Vif TR-FRET	T cruzi inh	RanGTP-Impb inh	Beta apoptosis	Calb FLC	rRNA inh HTS	rRNA inh HTS OD600	rRNA inh HTS RFP	AF4-AF9 inh
Cc1ccc(Cl)cc1N(CC(=O)NCc1ccc2c(c1)OCO2)S(C)(=O)=O	-0.3	-9.3%	-10.7	3.2	-1.1	-8.4	-0.1	0.3	0.4	-0.6
CCc1nn(CC(=O)N2CCN(c3cc(C)ccc3C)CC2)c(=O)c2cc3occc3n12	-0.3	·	-1.2	-1.2	5.4	1.8	9.4	10.5	-1.7	-1.0
CN=C1S/C(=C\c2ccc(O)c(OC)c2)C(=O)N1C	-5.9	·	-6.3	-4.0	8.8	2.5	-24.6	-38.0	-3.9	-2.4
CC(=O)N1C(=O)N(C(C)=O)C2C1N(C)C(=O)N2C(C)=O (stereo unspecified)	-0.3	-0.8%	-19.7	-0.9	0.4	-1.2	17.4	11.1	3.8	-1.1
COCCN(CC(=O)NC1CCCCC1)C(=O)/C=C/C(=O)c1ccc(OC)cc1O	·	-8.2%	21.1	1.5	·	2.0	35.7	0.2	0.2	-0.8
CCCCn1c(SCc2ccc(Cl)cc2)nc2c1c(=O)[nH]c(=O)n2C	-0.5	4.0%	22.3	2.9	2.5	7.4	·	·	·	·
